# High-throughput results deposited in PubChem by National Center for Advancing Translational Sciences (NCATS).
# SARS PLpro yeast: SARS-CoV PLP inhibition in yeast; S. cerevisiae expressing SARS-CoV PLpro, growth rescue; control for the full effect not named in the record; Potency, µM (doses to about 32.9 µM), for inactives: top-dose activity, positive = growth rescue; 330,000 compounds, 0.19% hits; AID 485353; active means well fitted rising curve with a large enough effect; inconclusive means small, poorly fitted or top-dose-only effect; inactive means no such curve, though single readings can be large or run the other way; note: 0% is about no effect; nearly all actives have a fitted effect of over 55% in size; growth read by luminescence after 48 h
# NS1 function inh: inhibitors of influenza NS1 protein function. 270,000 compounds, 0.4% hits. Potency, µM (titrated, usually from 46.1 µM), without a hit: at the top dose activity, positive = more growth. S. cerevisiae slowed by influenza A NS1, growth recovery by OD600; active means well fitted rising curve with a large enough effect; inconclusive means small, poorly fitted or top-dose-only effect; inactive means no such curve, though single readings can be large or run the other way; note: nearly all actives have a fitted effect of over 50% in size
#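 Compounds were scored for reversing the slow growth caused by influenza A NS1 in S. cerevisiae, measured by optical density at 600 nm. Assay medium contained 2% galactose at pH 6.0; NS1-free yeast of the same strain were the positive control.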
# LASV entry inh: inhibitors of Lassa virus binding or cell entry. Lassa virus pseudotype entry inhibition, cell reporter; control for the full effect not named in the record. Potency, µM (doses to about 37.9 µM), for the others: top-dose activity change, negative = inhibition, actives largely listed as inhibitors. 300,000 compounds, 1.2% hits; active means well fitted inhibition curve with a large enough effect; inconclusive means small, poorly fitted or top-dose-only effect, or effect the other way; inactive means flat fitted curve, though single readings scatter; tested in HEK293 cells; note: % is set by controls: 0 for no effect and ±100 for the full control effect; nearly all actives have a fitted effect of over 50% in size; luciferase read-out
# Cruzain Triton: blocks cruzain activity in presence of Triton detergent | P25779 | purified cruzain, Z-FR-AMC fluorescence, 0.01% Triton | Potency, µM, for inactives: max response, negative = inhibition, most hits filed as inhibitors | 200,000 compounds, 0.43% hits;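 note: plate controls were neutral wells for no effect and buffer without enzyme for full effect; nearly all actives have a fitted effect of over 40% in size; top concentration of the series not given in the record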
# Target sequence (P25779 123-467 limits assumed): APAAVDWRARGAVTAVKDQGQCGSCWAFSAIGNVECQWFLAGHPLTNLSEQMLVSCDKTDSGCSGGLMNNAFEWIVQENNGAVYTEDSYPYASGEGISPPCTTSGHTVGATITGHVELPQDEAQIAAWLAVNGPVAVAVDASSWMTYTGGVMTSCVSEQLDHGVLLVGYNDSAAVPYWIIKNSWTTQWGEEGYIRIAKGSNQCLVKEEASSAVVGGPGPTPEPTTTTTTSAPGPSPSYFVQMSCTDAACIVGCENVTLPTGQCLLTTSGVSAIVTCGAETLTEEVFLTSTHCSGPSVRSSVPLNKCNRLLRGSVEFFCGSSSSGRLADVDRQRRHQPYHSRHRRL
#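 Steps: dispense cruzain (1.5 nM final) in acetate buffer pH 5.5 with DTT and 0.01% Triton X-100; pin-transfer compounds; incubate 15 min RT; add Z-FR-AMC (2 uM final); read fluorescence every 30 s, using the 60 s intensity change.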
# Marburg entry inh: Marburg virus entry inhibition | Marburg virus pseudotyped entry inhibition, cell reporter; control for the full effect not named in the record; about a third of the inactives were read at about 46 µM | Potency, µM (highest dose often 37.8 µM), without a hit: at the highest dose activity change, negative = inhibition, usual class: inhibitors | 300,000 compounds, 1.8% hits | AID 540276; active = well fitted inhibition curve with a large enough effect; inconclusive = small, poorly fitted or top-dose-only effect, or effect the other way; inactive = flat fitted curve, though single readings scatter; tested in HEK293 cells; about a fifth of its hits are not listed in these tables; note: % is set by controls: 0 for no effect and ±100 for the full control effect; luciferase read-out
# RE007 growth inh: less growth of the S. pombe RE007 Vpr strain | Potency, µM (highest dose often 92.2 µM), without a hit: at the top dose activity change, negative = less growth | 360,000 compounds, 0.21% hits | S. pombe RE007 Vpr strain, BacTiter-Glo ATP luminescence, 24 h; control for the full effect not named in the record; active = well fitted falling curve with a large enough effect; inconclusive = small, poorly fitted or top-dose-only effect; inactive = no such curve, though single readings can be large or run the other way;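 note: % is set by controls: 0 for no effect and ±100 for the full control effect; nearly all actives have a fitted effect of over 50% in size; the assay follows cell death caused by Vpr and the record does not say whether a fall means rescue or toxicity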
#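 Fission yeast RE007 carrying one integrated HIV-1 vpr copy, seeded at OD 0.01 in PMG+AL medium with 23 nL pinned compound. Grown 24 h at 30 degrees; viability read by BacTiter-Glo luminescence after 5 min.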
# StopGo reporter: FMDV 2A StopGo reporter, luciferase signal; 410,000 compounds, 1.2% hits; Potency, µM (top dose mostly 57.9 µM), for inactives: at the highest dose signal change, negative = less light; human cells with a luciferase reporter of 2A StopGo recoding; control for the full effect not named in the record; active = well fitted falling curve with a large enough effect; inconclusive = small, poorly fitted or top-dose-only effect; inactive = no such curve, though single readings can be large or run the other way; tested in HEK293T cells; note: % is set by controls: 0 for no effect and ±100 for the full control effect; nearly all actives have a fitted effect of over 45% in size; luciferase light after 4 h
# Cruzain inh noDet: inhibitors of Trypanosoma cruzi cruzain without detergent | purified cruzain, Z-FR-AMC fluorescence, no detergent | Potency, µM, inactives show max response, negative = inhibition, most hits filed as inhibitors | AID 1476 | P25779 | 200,000 compounds, 2.3% hits;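 note: plate controls were enzyme without inhibitor for no effect and buffer without enzyme for full effect; nearly all actives have a fitted effect of over 40% in size; top concentration of the series not given in the record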
#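 Detergent-free condition (0.00005% Triton X-100) in acetate buffer pH 5.5 with DTT. 1.5 nM enzyme and compound were pre-mixed 15 min, then 2 uM Z-FR-AMC substrate added; reaction progress from fluorescence change between first and third reads (60 s).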
# * hit, by the source's call; ? = inconclusive; · = not tested or not shown; & = joins results of further samples; [ ] = dose if it differs, or a comment. Unless noted, calls come from the whole dose curve; as a rule, active = well fitted curve in the direction sought with a large enough effect; inconclusive = small, poorly fitted or top-dose-only effect, or another doubt; inactive = no such curve, though single readings can be large; an effect the other way counts as inactive or inconclusive. Potency is the fitted concentration of half-maximal effect.
Molecule	SARS PLpro yeast	NS1 function inh	LASV entry inh	Cruzain Triton	Marburg entry inh	RE007 growth inh	StopGo reporter	Cruzain inh noDet
CCCn1c(NCc2ccccn2)nc2ccccc21	0%	-6%	15%	0.0%	?	-13%	46%[activator]	-4%
Clc1ccc(-c2csc(NNC3=NCCCCC3)n2)cc1	15%	?	?	-2.1%	?	49%	-28%	3%
O=C(Nc1ccc(Cl)c(Cl)c1)Nc1nnc(CSc2ccccc2)s1	-2%	15%	3.5µM*	-1.0%	10µM*	40%	?	10µM*
COc1cccc(CN(CC(=O)NCC2CCCO2)C(=O)CNS(=O)(=O)c2ccccc2)c1 (centres undefined)	·	·	-2%	·	24%	19%	25%	·
COc1ccc(OC)c(/C=N/NC(=O)c2cc[n+](Cc3ccccc3)cc2)c1	0%	2%	?	-5.6%	-14%	-4%	10%	3%
CCc1ccc(/C=N/NC(=S)NCCc2ccccc2)cc1	1%	-57%	?	6.0%	-22%	-2%	1%	-23%
CCN(CC)C(=O)C1=C(C)Nc2nc3ccccc3n2C1c1cccc(OC)c1 (centres undefined)	2%	-1%	-20%[46.1 µM]	-5.8%&4.4%	-16%&17%[46.1 µM]	5%	-7%&-17%	-1%&-2%
CSc1ccc(Cl)c(C(=O)Nc2ccc(C)cn2)c1	0%	-2%	?	·	?	-4%	19%	·
O=C(NCC(c1ccco1)N1CCc2ccccc2C1)c1ccc(Cl)c([N+](=O)[O-])c1 (centres undefined)	4%	·	?	·	-4%	1%	0%	·
O=C(Cn1c(C(F)(F)F)nc2ccccc21)c1ccc(F)cc1	0%	-3%	3%	-0.1%	5%[46.1 µM]	-7%	0%	1%
CCN(CC)C(=O)CSc1nc2sc3c(c2c(=O)n1CCCOC)CCC3	2%	3%	-19%	·	23%	7%	-12%	·
c1ccc(-n2c(SCC3CCCCO3)nnc2-c2cccs2)cc1 (centres undefined)	1%	?	7%	0.6%	6%	8%	·	-4%
COc1cc2c(cc1NS(=O)(=O)c1cccc(C#N)c1)n(C)c(=O)n2C	·	·	5%[46.1 µM]	-1.6%	·	·	-15%	9%
COC(=O)c1sc(S(=O)(=O)N2CCCCC2)c(C(=O)OC)c1C	-4%	-7%	23%	-2.5%	13%	-2%	-13%	-2%
S=C(NCc1ccccc1)NCC1COc2ccccc2O1 (centres undefined)	-4%	-10%	12%	-3.6%	-6%	3%	75%[activator]	-12%
CC(=O)N1CCc2cc(S(=O)(=O)NC(Cc3ccccc3)C(=O)Nc3cc(C)ccc3C)ccc21 (centres undefined)	·	·	-8%[46.1 µM]	-3.5%	-13%[46.1 µM]	·	23%	-13%
O=C(O)C1CC=CCC1C(=O)NNc1c(Cl)cc(Cl)cc1Cl (centres undefined)	-3%	·	-1%	·	10%[46.1 µM]	2%	-10%	·
COc1ccc(C(=O)OCC(=O)NC(C)CCc2ccccc2)c(OC)c1 (centres undefined)	20%	-9%	·	·	·	8%	-8%	·
Cc1ccc(S(=O)(=O)NC2(C(F)(F)F)NC(=O)N(Cc3ccccc3)C2=O)cc1 (centres undefined)	6%	15%	22%	·	-8%	0%	-17%	·
CCCCCCCOC(=O)C1=C(C)Nc2ncnn2C1c1cccs1 (centres undefined)	0%	5%	13µM*	1.2%	?	-8%	?	?
N=C1C=CC(=C(c2ccc(N)cc2)c2ccc(N)cc2)C=C1	·	-4%	5µM*	13%&-4.8%	4µM*	?	-47%	-4%&-20%
COC(c1ccccc1)c1nnc(CCC(=O)NC2C3CC4CC(C3)CC2C4)o1 (centres undefined)	2%	-4%	·	·	·	-7%	19%	·
CCOC(=O)c1cnc2c(C)cccc2c1Nc1ccc(N2CCOCC2)cc1	-3%	-17%	-14%	-7.2%	30%	·	·	7%
COc1ccc(C2=NN(C(=O)c3cccs3)C(c3ccc(OC)cc3)C2)cc1 (centres undefined)	-2%	-3%	?	-5.6%	?	4%	-13%	-14%
CCn1c(SCC(=O)Nc2nc3ccc(OC)cc3s2)nnc1-c1ccoc1C	11%	-8%	4%	-8.0%	?	0%	8%	18%
O=C(NCCCN1CCOCC1)c1ccc(CS(=O)(=O)c2ccc(Br)cc2)o1	-7%	-5%	·	-2.4%	0%	11%	-4%	14%
CC12CN3CC(C)(CN(C1)C3c1ccc([N+](=O)[O-])o1)C2=O (centres undefined)	1%	2%	-6%	·	-23%	1%	-9%	·
CC1CCN(CC2CCN(C(=O)NCc3ccccc3)CC2)CC1	·	·	21%[46.1 µM]	0.1%	·	·	0%	6%
COc1cccc(CC(=O)OCC(=O)NNC(=O)c2ccc([N+](=O)[O-])cc2)c1	-1%	10%	6%	·	17%	-12%	-5%	·
CCOc1ccc(CCNC(=O)c2ccc3nc(N4CCOCC4)sc3c2)cc1OCC	-2%	3%	-13%	·	-5%[46.1 µM]	-9%	14µM*	·
Cc1cc(-c2ccccc2)nn1-c1nc2c(c(=O)[nH]c(=O)n2C)n1C	-3%	6%	3%	2.1%	?	-5%	-7%	10%
Cc1c(Cl)ccc2sc(NC(=O)c3ccco3)nc12	-21%	-41%	·	·	·	-16%	17%	·
COc1cc(C2C3=C(CCCC3=O)OC3=C2C(=O)CCC3)ccc1OCC(=O)Nc1ccccc1	?	0%	-3%	·	-1%	-13%	-10%	·
COc1ccc(Oc2ccc(C(F)(F)F)cc2NC(=O)c2ccc(OC)cc2)cc1	-2%	-5%	·	·	·	8%	-32%	·
CCN(CC)S(=O)(=O)c1ccc2c(c1)N(CC(=O)N1CCN(c3cccc(OC)c3)CC1)C(=O)CO2	·	·	2%[46.1 µM]	-0.4%	·	·	-26%	?
COc1cccc(CN2CC(C(=O)NC3CCCCCC3)CCC2=O)c1 (centres undefined)	-1%	-6%	0%[46.1 µM]	·	24%[46.1 µM]	7%	-10%	·
COC(=O)c1[nH]c2ccccc2c1NC(=O)C(C)N1CC(C)OC(C)C1 (centres undefined)	0%	-1%	?	·	0%[14.2 µM]	-8%	-9%	·
S=C(NCC1CCCO1)N1CCc2ccccc2C1 (centres undefined)	2%	-1%	·	·	·	-14%	91%[activator]	·
CCC(=O)N(CCCN(C)C)c1nc(-c2cc(OC)ccc2OC)cs1	7%	-8%	9%	1.5%	?	0%	-3%	-1%
COc1cc(C(=O)Nc2nc(-c3cccs3)cs2)cc(OC)c1OC	-6%	-54%	10µM*	-0.3%	18µM*	-9%	·	30%
Cc1ccc(C)n1-c1nn(S(=O)(=O)c2ccccc2)c2cccc(F)c12	-6%	5%	-9%[46.1 µM]	·	?	8%	-24%	·
Cc1ccc(-c2nc(CN3CCCC(C(=O)N4CCOCC4)C3)c(C)o2)cc1 (centres undefined)	-1%	3%	·	·	·	10%	-17%	·
COc1ccc(N2CC(O)=C(c3nc(-c4ccccc4)cs3)C2=N)cc1	-2%	-4%	·	·	·	7%	-3%	·
COc1cc2ncnc(NCc3cccc(Cl)c3)c2cc1OC	1%	?	·	·	·	16%	-11%	·
O=C(O)COc1ccc(Cl)cc1C1CCCCC1	·	·	-11%	·	2%	32%	-18%	·
Cc1sc(NC(=O)CCC(=O)O)c(C(N)=O)c1-c1ccccc1	-1%	4%	7%	-2.1%	12%	-6%	18%	-16%
[O-][n+]1ccc(OCc2ccccc2)cc1	·	·	-13%	·	?	4%	-2%	·
Cc1c(CN2CCCC(C(=O)c3cccc(OC(C)C)c3)C2)c(=O)n(-c2ccccc2)n1C (centres undefined)	0%	4%	14%	·	28%[46.1 µM]	-11%	0%	·
CSc1ccccc1OCc1cc(C(=O)NC2CCc3ccccc32)no1 (centres undefined)	6%	?	·	·	·	0%	6%	·
O=C(Nc1nnc(Cc2ccc(F)cc2)s1)Nc1ccccc1F	6%	15%	·	·	·	2%	16%	·
Cc1cccc(-n2c(-c3ccncc3)n[nH]c2=S)c1	2%	7%	-2%	-5.2%	7%	8%	-12%	-1%
O=C(COc1ccc(F)cc1)NC1CC1	-3%	-3%	16%	-0.3%	-2%	9%	14%	-7%
Cc1ccc2c(c1)N(CC(=O)N1CCCc3ccccc31)C(=O)C(C)O2 (centres undefined)	-3%	-10%	·	-0.1%	0%	0%	7%	-3%
Cc1ccc2c3c(cccc13)-c1ccccc1C2=O	-25%	-7%	?	-3.7%	-2%	0%	71%[activator]	-5%
COc1ccc(C2(O)CCN(Cc3nnnn3Cc3ccc(F)cc3)CC2)cc1	-5%	-18%	-15%	-0.5%	-7%	-6%	·	6%
COc1ccccc1C1CC(=O)Oc2c(C(C)C)ccc(C)c21 (centres undefined)	-74%	·	·	-3.4%	·	3%	?	-14%

# Further records
Molecule	SARS PLpro yeast	NS1 function inh	LASV entry inh	Cruzain Triton	Marburg entry inh	RE007 growth inh	StopGo reporter	Cruzain inh noDet
COc1ccc(C(CC(=O)O)NC(=O)Cc2ccccc2)cc1OC (centres undefined)	13%	1%	-3%	-1.1%	6%	10%	-9%	-6%
CC1CN(C2CCN(S(=O)(=O)c3ccccc3)CC2)CC(C)O1 (centres undefined)	3%	9%	?	-0.5%	?	0%	3%	-13%
CCOc1ccc(N2CC(C(=O)NCCc3c[nH]c4ccc(OC)cc34)CC2=O)cc1 (centres undefined)	0%	-6%	·	·	-8%[46.1 µM]	0%	-9%	·
COc1ccc(C(=O)NCc2cccnc2)cc1C(=O)NCc1cccnc1	·	-2%	?	-4.0%&2.2%	21%&21%&21%&1%&21%&21%&21%	-3%	-3%	3%&-6%
CCc1cc(=O)oc2c(C)c(OCC(=O)NC3CC(C)(C)NC(C)(C)C3)ccc12	2%	1%	·	·	·	0%	-7%	·
Cc1ccc(C(=O)Nc2nc3ccccc3n3nnnc23)cc1	3%	-5%	-6%	1.3%	-7%	3%	34%[activator]	-11%
CC(=O)c1ccc(-c2ccc(C(=O)NCC(c3ccc(F)cc3)N3CCOCC3)o2)cc1 (centres undefined)	-1%	·	-13%	·	?	7%	-16%	·
